# VACV E9 pol inh: inhibitors of vaccinia virus processive DNA synthesis (E9 polymerase); in vitro processive DNA synthesis, absorbance read-out; stronger effect = lower value; some inactives read as strong as hits; normalized absorbance, % (test concentration not listed); actives 0.94% (n = 46,000); AID 493162;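 active means replicate mean up to 90% and picked by the depositor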;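 further: 100% = median of the test wells of a plate; 100 nL library stock went into each well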
# * marks the source's active call; other numbers are inactive results; & = joins results of further samples.
SMILES	VACV E9 pol inh
Fc1cc(Br)ccc1N=Cc1ccc2ncccc2c1	96
C=C(C)CSC1=C(C#N)C(c2sccc2C)CC(=O)N1 (stereo not given)	97
CCCC1=NN(c2ccccc2)C(=O)/C1=C/c1ccc(Cl)cc1	105
Cc1c(C(=O)O)oc2ccc3nc(N(C)C)sc3c12	99
Cc1ccc(S(=O)(=O)/N=S(\C)c2ccccc2)cc1 (stereo not given)	87
Cn1nnc2c(sc3nc(N4CCOCC4)c4c(c32)CCCC4)c1=O	100
CSc1cccc(N/C=C(/C#N)c2ccsc2)c1	101
CCOC(=O)N1CCC(NC(=O)C2CCCN(C(=O)N3CCOc4ccccc43)C2)CC1 (stereo not given)	98
Nc1[nH]ncc1-c1ccsc1	102
CCC(NS(=O)(=O)c1c(C)[nH]c(=O)[nH]c1=O)C12CC3CC(CC(C3)C1)C2 (stereo not given)	102
CN1C(=O)NC(c2ccccc2)C2=C1CN(CCc1ccccc1)C2=O (stereo not given)	100
c1ccc2c(c1)nc(N1CCCC1)c1nncn12	100
CC[N+](CC)=c1ccc2ccc(O)cc2o1	101
CCN(CC)S(=O)(=O)c1ccc(-c2nc3ccccc3s2)cc1	99
O=C(Nc1ccccc1)N1CCC2(CC1)OCCO2	92
O=C(/C=C/c1cccc(F)c1)NCCCn1ccnc1	102
NNc1ccccn1	101
CCN(CC)C(=O)C12CC3CC(CC(Cl)(C3)C1)C2	103
Cc1nc(COc2ccccc2Cl)sc1C(=O)/C=C/N(C)C	100
Cn1nc(C(F)(F)F)c(C#N)c1Oc1ccccc1	86
COc1cc(Cl)c(C)cc1NCC(=O)Nc1cccnc1Cl	99
CC(=O)NCc1ccc(C2CCCCC2)cc1	104
CCNc1nnc(-c2ccccc2OC)s1	90
COC(=O)c1sc2ccccc2c1NC(=O)COc1ccc(Cl)cc1	101
CCCCC1(C)OC(=O)C(=Cc2ccc(F)cc2)C(=O)O1 (stereo not given)	100

# (continued)
SMILES	VACV E9 pol inh
Nc1ccc(C(=O)NCC2CCCN3CCCCC23)cc1 (stereo not given)	101
Cc1nc2ccc(S(=O)(=O)NC(CC(C)C)C(=O)NC3CCCCCC3)cc2s1 (stereo not given)	103
CC(C)CC1NC(=O)N(C)C1=O (stereo not given)	97
CCC(=O)NC1CC2C(=O)Nc3c(C)cccc3C2OC1=O (stereo not given)	97
CC(=O)NCS(=O)(=O)c1ccc(C)cc1	99
CS(=O)(=O)Nc1ccc(Br)cc1	100
Cc1ccc2nc(NC(=O)/C=C/c3ccccc3)sc2c1	94&95
Cc1ccc(N(C)C(=O)c2cc(S(=O)(=O)N3CCCC3)cn2C)cc1	102
COc1ccc2c(C)cc(SCC#N)nc2c1	84*
CCOC(=O)c1c(C)n(C)c2ccc(O)c(CN3CCC(C)CC3)c12	105
O=C1CCC(c2ccccc2)=NN1Cc1c(F)cccc1Cl	95
O=C(CSc1cnc2ccccc2n1)N1CCN(c2ccc(F)cc2)CC1	113
CCc1ccc(Oc2c(C(F)(F)F)oc3c(CN(C)C)c(O)ccc3c2=O)cc1	100
Cc1ccccc1CN1CCN(C(C)C)CC1	100
COC(=O)C12CC3(C)CC(C)(C1)CC(C(=O)OC)(C3)C2	112
Cn1c(-c2ccccc2)cc(C=Nc2ccccc2)c1O	100
CC(C)c1ccc(S(=O)(=O)NCCOC23CC4CC(CC(C4)C2)C3)cc1	100
Cc1ccccc1Nc1cc(C(=O)NCc2ccccc2)c2ccccc2n1	83
Cc1ccc(-c2nn(-c3ccccc3)cc2/C=C\C(=O)N2CCOCC2)cc1	105
CC(C)COC(=O)NCc1ccc2c(c1)OCO2	98
CCOC(=O)c1cnn(-c2ccccn2)c1N	101
CC(C)C(=O)NCCn1ccc2ccccc21	99
O=C(Nc1ccccc1)N1CCCN(c2c(Cl)cncc2Cl)CC1	109
Nc1ccc(/C=C\C(=O)O)cc1	88
COc1ccc(-c2csc(Nc3ccc(S(=O)(=O)Nc4cc(C)on4)cc3)n2)cc1C	100

# Next section:
SMILES	VACV E9 pol inh
CCOc1cnc(-c2ccccc2)o1	96
C[N+]1(CC(=O)OCCCc2ccccc2)CCCCC1	107
CCCN(CCC)S(=O)(=O)c1ccc2c(c1)CCCN2C(C)=O	103
CC(=O)Nc1ccc(OCCOc2ccc(/C=C3/C(=N)N4C=CSC4=NC3=O)cc2)cc1	89
CC(=O)NC(C)c1nc2ccccc2n1C (stereo not given)	100
CCOc1ccc(NC(=O)Cn2c3c(c(-c4ccccc4)cc2=O)CCCC3)cc1	92
O=C(CSc1ccccn1)c1ccc2c(c1)OCO2	100
CCCN(CCC)S(=O)(=O)c1ccc(C(=O)NC(=S)Nc2ccc(F)cc2)cc1	101
CCCc1cc(=O)n2[nH]cnc2n1	101
Cc1ccccc1OCc1nnc(SCCC(=O)O)n1Cc1ccccc1	100
CN(C)/C=N/C(=S)N1CCOCC1	100
O=S(=O)(c1ccccc1)N1CCCCC1c1cccnc1 (stereo not given)	143
COc1ccc([C@@H]2CC(=O)c3c(O)cc(O[C@@H]4O[C@H](CO[C@H]5O[C@@H](C)[C@H](O)[C@@H](O)[C@H]5O)[C@@H](O)[C@H](O)[C@H]4O)cc3O2)cc1O	100
Cc1ccc(C(=O)NC(C)C)cc1	101
COc1ccc(/C=C2\SC(=S)N(CCCC(=O)O)C2=O)cc1OC	100
CC1CCc2nc(NC(=O)c3ccc(Cc4ccccc4)cc3)sc2C1 (stereo not given)	99
Cc1sc2nc(CCl)[nH]c(=O)c2c1C	102
Cc1ccc(Sc2c(C)c3cc4c(cc3[nH]c2=O)OCO4)cc1	100
CCCNC(=O)CCn1c(=O)c2cccn2c2cccnc21	108
Cc1cc(=O)oc2cc(OC3OC(CO)C(O)C(O)C3O)ccc12 (stereo not given)	99
CCC(=O)Oc1ccc(C(=O)Nc2cc(C(=O)O)cc(C(=O)O)c2)cc1	100
O=C(NCSc1ccnc(SCNC(=O)c2ccccc2)n1)c1ccccc1	99
CCOC(=O)COc1nc(-c2ccccc2)cc(-c2ccccc2)c1C#N	109
CC(=O)N(Cc1nnc2c3ccccc3c(C)nn12)c1ccccc1	85
COc1ccc(-c2cc3ccccc3n2CC(O)CN2CCCCCC2)cc1 (stereo not given)	100

# Four structures already listed, sorted by SMILES length, highest first.
SMILES	VACV E9 pol inh
CCC(=O)Oc1ccc(C(=O)Nc2cc(C(=O)O)cc(C(=O)O)c2)cc1	100
Cc1ccc(Sc2c(C)c3cc4c(cc3[nH]c2=O)OCO4)cc1	100
C[N+]1(CC(=O)OCCCc2ccccc2)CCCCC1	107
Cc1sc2nc(CCl)[nH]c(=O)c2c1C	102

# Additional results follow.
SMILES	VACV E9 pol inh
Nc1nc(-c2ccc(S(=O)(=O)N3CCOCC3)cc2)cs1	116
O=C(Nc1ccccc1)N1CCN(C2c3ccccc3-c3ccccc32)CC1	103
COc1ccc(OC)c(S(=O)(=O)NC2CCS(=O)(=O)C2)c1 (stereo not given)	106
COc1ccc(C2c3c(oc4ccccc4c3=O)C(=O)N2CCCO)cc1 (stereo not given)	98
O=S(=O)(/C=C/c1ccccc1)N1CCNCC1	103
COc1cc(Br)cc(CNc2cc(C)on2)c1O	100
O=C(OCc1c(Cl)cccc1Cl)c1ccc2ccccc2n1	102
COc1ccc(-n2cnc3cc(C(=O)NCc4cccnc4)ccc32)cc1	100
CS(=O)(=O)c1ccc(-c2nc(-c3ccc(F)cc3)c(-c3ccncc3)[nH]2)cc1	100
CCC(=O)Nc1c2c(nn1-c1ccc(C)cc1)CSC2	100
O=C(Nc1nnc(-c2ccc(Cl)cc2Cl)s1)c1cccc(F)c1	102
CCCOc1ccc2c3c(c(=O)oc2c1C)CCC3	99
CCOC(=O)/C=C(\C)Sc1cc(=O)oc2ccccc12	99
NC(=O)N(N)c1nc(N2CCCCC2)nc(N2CCCCC2)n1	100
Cc1ccc(C)c(C(=O)NC(C)CN)c1 (stereo not given)	105
COC(=O)c1cc2nc(-c3ccc(F)cc3)cc(C(F)(F)F)n2n1	104
Clc1cccc(Cc2nnc(-c3ccccc3)o2)c1	94
COc1ccc(NC(=O)OC(C)C)cc1	99
O=C(c1ccccc1)c1ccc(N=Cc2ccccc2O)cc1	94
CC(C)N(C(=O)Cn1ncc2c(=O)oc3ccccc3c21)C1CCCCC1	104
CCCCCCCCCC(=O)N[C@H](CN1CCOCC1)[C@H](O)c1ccccc1	101
CC(=NC(=S)c1ccc(Cl)cc1)N(C)C	92
Cc1ccc(C(C)C)cc2c(C)ccc1-2	102
Cc1ccc(C)n1NC(=O)c1ccco1	94
Cc1nc2sccn2c1C(=O)c1ccc(NC(=O)c2ccc(F)cc2)cc1	92

# Given field by field: part of the list above
CC(C)N(C(=O)Cn1ncc2c(=O)oc3ccccc3c21)C1CCCCC1
- VACV E9 pol inh: 104
O=C(c1ccccc1)c1ccc(N=Cc2ccccc2O)cc1
- VACV E9 pol inh: 94
COc1ccc(-n2cnc3cc(C(=O)NCc4cccnc4)ccc32)cc1
- VACV E9 pol inh: 100
O=C(OCc1c(Cl)cccc1Cl)c1ccc2ccccc2n1
- VACV E9 pol inh: 102

# Continued:
SMILES	VACV E9 pol inh
S=c1[nH]n(-c2ccccc2)c(=S)s1	90
CC(=O)Nc1ccc(OC(=O)Cc2ccccc2)cc1	96
CNC(=O)Nc1ccc2snnc2c1	95
CCC(=O)OC1(Cc2ccc(CC)cc2)CC(C)N(C)CC1C (stereo not given)	99
CN(C(=O)c1coc(=O)c2ccccc12)c1ccc(F)cc1	98
CCOC(=O)c1ccc(NC(=O)N2CC(C)Oc3ccccc32)cc1 (stereo not given)	108
CCNC(=S)Nc1ccc(OC)cc1	100
C=CCn1nnnc1SCc1cccc(CSc2nnnn2CC=C)c1	98
NC(=O)COC(=O)c1ccccc1Oc1ccccc1	92
O=C(NCc1ccccc1)C1CCCN(c2nc3ccsc3c(=O)s2)C1 (stereo not given)	102
CCc1ccccc1N(C)C(=O)Cc1c(C(=O)O)[nH]c2ccccc12	96
CC(C)/C=C1\CC/C(=C\c2ccc(C(F)(F)F)cc2)C1=O	107
NC(=O)c1cc[n+](CC2=C(C(=O)O)N3C(=O)C(NC(=O)C(c4ccccc4)S(=O)(=O)[O-])C3SC2)cc1 (stereo not given)	83*
CCS(=O)(=O)c1ccc(O)c(N2C(=O)c3cccc4cccc(c34)C2=O)c1	100
c1ccc2c(c1)OCC(CNCC1COc3ccccc3O1)O2 (stereo not given)	100
Cc1ccc(C)c(N2CCN(C(=O)c3ccc(N4CCCC4=O)cc3)CC2)c1	100
CCOc1ccc(NC(=O)CSc2oc(-c3ccccc3)nc2S(=O)(=O)c2ccccc2)cc1	105
CC(C)OC(=O)CSc1ncnc2scc(-c3ccccc3)c12	103
Cn1c(Sc2cnn(-c3ccccc3)c(=O)c2Br)nnc1-c1ccccc1	100
CC(CC1CC(C)(C)OC1=O)C(=O)Nc1nncs1 (stereo not given)	100
Cc1ccc(SCc2cc(=O)[nH]c(/N=C(/N)Nc3ccccc3)n2)cc1	101
CCOC1(C)OC2CCC(CC)OC2O1 (stereo not given)	100
CCOC(=O)c1cccc(C(=O)Oc2ccc3cc(Br)ccc3c2)n1	101
CNCC(O)c1cccc(O)c1 (stereo not given)	101
CN(C(=O)c1ccc(Cl)cc1)C1(C)CCS(=O)(=O)C1 (stereo not given)	100

# New compounds follow.
SMILES	VACV E9 pol inh
CC1=NN(C(=O)CCc2ccccc2)C(O)(c2ccccc2)C1 (stereo not given)	100
O=C(O)Cn1c2c(c3ccccc31)CSc1ccc(Cl)cc1-2	71*
O=C1CN(C(=O)c2ccccc2)C(c2ccc(F)cc2)c2cc(F)ccc2N1 (stereo not given)	93
CCc1ccc(C2NCc3ccccc3-n3cccc32)cc1 (stereo not given)	100
Cc1ccc(-n2ncc3c(NCC4CCCO4)ncnc32)c(C)c1 (stereo not given)	101
CCn1nc(C)cc1Nc1ccccc1	93
COc1cccc(OCCSc2nc(-c3ccccc3)cc(=O)[nH]2)c1	100
Cc1ccc(CC2SC(N3CCN(c4ccccc4)CC3)=NC2=O)cc1 (stereo not given)	100
CCNC(=O)c1c(C)c(C(=O)OCC)n(CC)c1C	100
Cc1ccc(CSc2ncc(C(F)(F)F)cc2Cl)cc1	100
COC(=O)Cc1nc2ccccc2[nH]1	110
CN(C)c1ccc(N/C=C2/CCCC2=O)cc1	100
Cc1[nH]c2ccccc2c1CCN1C(=O)c2ccccc2C1=O	100
Cc1oc2c(C)c(O)c(CN(C)C)cc2c(=O)c1Oc1ccccc1F	102
CCSc1nc2c(c(=O)n1C)C1(CCCCC1)Cc1ccccc1-2	100

# An excerpt of these results, as labelled records:
smiles: CCNC(=O)c1c(C)c(C(=O)OCC)n(CC)c1C
  VACV E9 pol inh: 100
smiles: Cc1ccc(CSc2ncc(C(F)(F)F)cc2Cl)cc1
  VACV E9 pol inh: 100
smiles: COC(=O)Cc1nc2ccccc2[nH]1
  VACV E9 pol inh: 110
smiles: CN(C)c1ccc(N/C=C2/CCCC2=O)cc1
  VACV E9 pol inh: 100

# (listing goes on)
SMILES	VACV E9 pol inh
COc1cc(OC)c(NC(=O)c2c(C)nn(-c3ccccc3)c2-n2cccc2)cc1Cl	99
CN(C)c1ccc(-c2n[nH]c3c2C(=O)CCC3)cc1	100
O=C(c1ccc(F)cc1)n1cc(Cl)cn1	100
CC1SC(C)C(=O)N(CC(=O)Nc2ccccc2)C1=O (stereo not given)	80
N#Cc1ccc(COC(=O)CCC(=O)c2ccc(F)cc2)cc1	107
O=c1[nH]c2ccccc2nc1C(=S)N1CCOCC1	100
CSc1sc(-c2nc(C(C)(C)C)cs2)c2c1C(=O)CCC2	109
N#Cc1c(N)nc2c(c1-c1ccccc1)CCC2	99
Cc1ccc(NC(=O)Nc2nnc(N3C(C)CCCC3C)s2)cc1C (stereo not given)	97
Cc1ccc(NC(=O)CSc2nc3ccsc3c(=O)n2Cc2ccccc2F)cc1Cl	101
CN(C)CCNC(=O)c1ccc2c(=O)n(Cc3ccc4c(c3)OCO4)c(=S)[nH]c2c1	97
COC(=O)C1=C(C)NC(C)=C(C(=O)OC)C1c1ccccc1[N+](=O)[O-]	100&99

# From PubChem

# A portion of the library. The share of hits here may be higher or lower than overall.
